# High-throughput results: PubChem BioAssay, Center for Chemical Genomics, University of Michigan
# CDC25B-CDK2 inh: human CDC25B-CDK2/CyclinA binding inhibition | HTRF CDC25B-CDK2/CyclinA binding, anti-His/anti-Flag; stronger effect = higher value | z-score (test concentration not listed) | hit rate 0.72% among 94,000 | AID 1259370;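 also: score is relative to mean and SD of negative controls; strong numbers were not always called active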
# TAR Tat displ: HIV-1 TAR-Tat binding disruption. z-score (test concentration not listed). hit rate 0.6% among 100,000. HIV-1 TAR RNA, Tat peptide displacement FRET; stronger effect = higher value. AID 1259389;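 also: score is relative to mean and SD of negative controls; some compounds called inactive have numbers as strong as hits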
# The depositor's hits bear a star; nt = no result given.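 The calls were made as follows: active = z-score from 3 up in half or more of its runs; inactive = the rest.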
SMILES,CDC25B-CDK2 inh,TAR Tat displ
Cc1cc(C)c2c(=O)cc(C(=O)Nc3nnc(C(C)C)s3)oc2c1,-2.4,-0.85
O=C(Cc1n[nH]c(=O)c2ccccc12)NC1CCc2ccccc21 (stereo not drawn),-1.6,-0.85
CN1CCN(c2ncnc3oc(-c4ccccc4)c(-c4ccccc4)c23)CC1,-0.86,0.11
O=C(NCC(c1ccco1)S(=O)(=O)c1ccc(F)cc1)c1cccs1 (stereo not drawn),nt,1.8
CCN1CCN(CCNC(=O)c2cc3n(n2)CC(C)(C(=O)NC2CCCCC2)N(C)C3=O)CC1 (stereo not drawn),nt,0.71
O=C(NCCN1CCCCC1)C1CCN(c2nc3cccnc3s2)CC1,nt,2.7
O=C(Oc1ccccc1)OC1CCS(=O)(=O)C1 (stereo not drawn),0.75,1.3
COc1cccc(Nc2ccc(-c3ccccc3)nn2)c1,-0.54,nt
CCc1cc2c(C)cc(=O)oc2cc1OCC(=O)c1ccc(C)cc1,-1.8,nt
O=C(Nc1ccccc1Cl)c1cc(=O)c2ccccc2o1,-2.6,2.2
CCSc1nnc(NC(=O)c2ccccc2Cl)s1,-0.97,nt
O=C1N(Cc2ccccc2Cl)C2CS(=O)(=O)CC2N1c1ccccc1 (stereo not drawn),nt,-0.21
O=C(Cn1cc(SCc2cccc(F)c2)c2ccccc21)N1CCCC1,nt,-0.61
COC(=O)c1ccc(COC(=O)CCc2nc3ccccc3[nH]c2=O)cc1,-2.2,-0.16
COc1cccc2c1OC(c1ccncc1)N1N=C(c3ccccc3O)CC21 (stereo not drawn),-1.6,2.1
N#C/C(=C\c1ccc(OCc2ccccc2)cc1)C(=O)O,-0.39,nt
N#Cc1ccc(Cn2c(=O)n(CCc3c[nH]c4ccccc34)c(=O)c3cccnc32)cc1,-3.3,nt
CCc1ccc(S(=O)(=O)N2CCCCC2)cc1,nt,1.3
Fc1ccc(-c2csc(Nc3cccnc3)n2)cc1,-1.6,-0.03
Cc1cc(C)c(S(=O)(=O)NCc2cn3ccccc3n2)c(C)c1,-0.21,nt
O=C(CN1Cc2ccccc2C1=O)NCc1ccc(CN2CCOCC2)o1,nt,0.49
Cn1c(=O)c(=O)n(C)c2cc(S(=O)(=O)N3CCN(c4ccccn4)CC3)ccc21,-1.9,-0.45
Cc1ccc2cccc(Oc3nc(C)nc4sc5c(c34)CCC5)c2n1,-4.6,0.07
O=C1Nc2ccccc2C1Cc1ccccc1F (stereo not drawn),0.47,2.1
COc1ccc(OC(=O)CSc2nnc(-c3cccc(OC)c3)o2)cc1,-5.1,1.2
Cc1ccc(NS(=O)(=O)c2cc(/C=C/c3onc(C)c3[N+](=O)[O-])ccc2C)cc1C,nt,1
Cc1ccc2nc(Cc3nc4ccc(C)cc4[nH]3)[nH]c2c1,1.1,-1.2
CCOC(=O)c1c(NC(=O)COCc2cc(-c3ccc4c(c3)OCO4)on2)sc(C)c1C,nt,1.4
COc1ccc(-c2cc(C)no2)cc1S(=O)(=O)Nc1cc(C)cc(C)c1,nt,0.03
Cc1nn(-c2ccc(N3CCOCC3)nn2)c(C)c1CCC(=O)N1CCN(c2ccccn2)CC1,nt,-0.16
CNC(=O)OC(C)(C)C#Cc1cncnc1,-0.03,nt
CCOC(=O)c1cnc2ccc(Br)cc2c1NCc1ccco1,-3.2,-1.2
Cc1c(C(=O)C(=O)NCCCn2ccnc2)c2ccccc2n1C,-1.7,nt
Cc1cccc(Sc2nc3ccccc3n3c(=O)[nH]nc23)c1,-2.1,0.14
S=C(CN1CCCC1=S)N1CCOCC1,-3.8,nt
CCCn1c(NCc2ccco2)nc2ccccc21,-0.65,1
CSc1cccc(NC(=O)CCC(=O)N2CCSc3ccccc32)c1,nt,0.12
CCN(CC)CCN(C(=O)c1ccco1)c1nc2c(Cl)cccc2s1,nt,-0.25
Cc1c(C2=NOC(O)(C(F)(F)F)C2)sc2ccc(Cl)cc12 (stereo not drawn),-0.12,nt
CCOC(=O)C1CCCN(c2c(NCCN(C)C)c(=O)c2=O)C1 (stereo not drawn),-0.18,-0.1
Cc1cc(C)c2c(n1)SCC(=O)N2CCCC(=O)NCC1CCCO1 (stereo not drawn),-1.4,0.76
O=C(Nc1c(C(=O)c2ccccc2)oc2ccccc12)c1cccs1,-1.4,0.33
COC(=O)c1c(NC(=O)c2ccc(-c3ccccc3)cc2)sc2c1C(C(=O)OC)CC2 (stereo not drawn),-0.01,0.13
Cc1c(Cl)cccc1-n1nnc(-c2nc(-c3cccs3)no2)c1N,nt,0.56
CCC(C)NS(=O)(=O)c1csc(C(N)=O)c1 (stereo not drawn),nt,2.4

# Already shown: an excerpt of the list.
SMILES,CDC25B-CDK2 inh,TAR Tat displ
Cc1cc(C)c2c(n1)SCC(=O)N2CCCC(=O)NCC1CCCO1 (stereo not drawn),-1.4,0.76
O=C(Nc1c(C(=O)c2ccccc2)oc2ccccc12)c1cccs1,-1.4,0.33

# (listing goes on)
SMILES,CDC25B-CDK2 inh,TAR Tat displ
Cc1ccc2nc3c4ccccc4cnc3n2c1,0.19,nt
O=C(NCc1ccc2c(c1)OCO2)C1CCCN1C(=O)OCc1ccccc1 (stereo not drawn),nt,1.5
N#Cc1c(NC(=O)CSc2nnc3ccccn23)sc2c1CCC2,-1.2,nt
CCCCn1c(O)c(C2=Nc3ccccc3SC(c3cccc(O)c3)C2)c(=O)[nH]c1=O (stereo not drawn),-2.4,2.5
O=C(CSc1nc2nccnc2c(=O)n1Cc1cccs1)Nc1ccc(F)cc1,nt,0.64
CC(C)NC(=O)N1CCCN(c2nc3ccc(Cl)cc3s2)CC1,-1.1,nt
Cc1ccn2c(=O)c(C(=O)NCCCN3CCCCC3C)c(O)nc2c1 (stereo not drawn),-0.5,-0.59
O=C(CSc1nccn(-c2ccc(F)cc2)c1=O)Nc1ccc(F)c(Cl)c1,nt,-0.6
Cc1cccc(NC(=O)Cn2ncc3c2-c2ccccc2OC3)n1,0.87,1
CCn1c(=O)sc2cc(S(=O)(=O)N3CCN(C(=O)c4cnccn4)CC3)ccc21,nt,-0.19
CCN1c2ccccc2NC2=C(C(=O)CCC2)C1c1ccco1 (stereo not drawn),nt,-10
CN(CC(=O)NCc1ccc2c(c1)OCO2)S(=O)(=O)c1ccc2c(c1)NC(=O)CS2,nt,1.6
Brc1ccc(CN2CCN(Cc3ccco3)CC2)cc1,-0.88,0.57
COCCn1c(SCC(=O)N2CCCc3ccccc32)nc2c(c1=O)SCC2,-0.61,-0.19
COC(=O)c1ccc(OCC(O)Cn2c[n+](C)c3cc(C)c(C)cc32)cc1 (stereo not drawn),2.1,1.1
O=c1[nH]c(/C(=N\O)c2ccccc2)no1,-5,nt
Cc1ccnc(NS(=O)(=O)c2ccc(NC(=O)c3nn(-c4ccc(Cl)cc4)ccc3=O)cc2)n1,-0.68,-0.34
Cc1ccc(-c2nn3c(C4COc5ccccc5O4)nnc3s2)cc1 (stereo not drawn),-0.46,0.03
Cc1nc(-c2ccccc2)nc2sc(C(=O)c3ccc(F)cc3)c(N)c12,-0.74,nt
CCC(C)OC(=O)C1=C(C)NC2=C(C(=O)C(C(=O)OC)C(C)C2)C1c1coc2ccc(C)cc2c1=O (stereo not drawn),-1.4,0.75
Cc1cc(C)c2c(=O)c3c(oc2c1)C(=O)N(CCCO)C3c1cccc(O)c1 (stereo not drawn),-1.6,-0.05
COc1cc(NC(=O)Cn2nc3c4scc(-c5ccc(F)cc5)c4ncn3c2=O)cc(OC)c1,nt,1.8
CCCCc1cc(=O)oc2c(C)c(OC(C)C(=O)OCC)ccc12 (stereo not drawn),-1.7,nt
Cc1ccc2c(c1)-c1cc(C)nn1C(c1ccc(C(=O)O)cc1)N2 (stereo not drawn),0.94,0.09
Cc1ccc2c(c1)c1c3n2CCN(CC(O)CN2CCCCC2)C3CCC1 (stereo not drawn),-4,nt
CN(C)c1cccc2c1c(NC(=O)Nc1ccc(OCc3ccccc3)cc1)nn2C,-0.15,nt
O=C(Nc1ccc2nc3n(c(=O)c2c1)CCCCC3)C(=O)N1CCN(C(=O)c2ccco2)CC1,-0.65,nt
O=C(Oc1ccc2c(c1)oc(=O)c1ccccc12)c1ccccc1,-1.9,0.57
O=C(O)c1cccn1Cc1ccc(F)cc1,2.2,0.54
CCc1nn2c(=O)cc(CSc3nnc(-c4ccccc4F)o3)nc2s1,-1.5,-0.35
COc1ccc(Cn2c(=O)c(C#N)cc3c(=O)n4cc(C)ccc4nc32)cc1,-0.85,-3.1
CCC(C)NC(=O)c1noc(C)c1[N+](=O)[O-] (stereo not drawn),-1.3,2.6
Cc1ccc(C)c(N2CCN(c3c(C)c(C)nc4ncnn34)CC2)c1,nt,0.69
COC(=O)c1cc(S(=O)(=O)NCCc2ccc(SC)cc2)c[nH]1,nt,0.65
CC1CCN(c2ccc3nnc(CCC(=O)NCCCOC(C)C)n3n2)CC1,nt,0.92
COCCCNc1nn2nnnc2c2ccccc12,nt,1.9
CC1CCN(c2ccc3nnc(CCC(=O)N4CCOCC4)n3n2)CC1,nt,1.6
Cc1ccccc1CNCCSc1nnnn1-c1ccccc1,-0.36,-0.58
Cn1c(-c2ccc(C(C)(C)C)cc2)n[nH]c1=S,2.6,nt
Cn1c(=O)oc2cc(S(=O)(=O)Nc3cccc(C(=O)O)c3)ccc21,-1.2,2.1
CC(C)c1ccc2nc(-c3ccc(N)cc3)[nH]c2c1,-0.46,0.59
COC(=O)c1cnn2c1NCN(Cc1cccs1)C2,-1.3,0.37
O=S(=O)(c1ccccc1)N1CCCC1c1cccs1 (stereo not drawn),0.14,-0.52
CSc1nnc(SC2=CC(=O)CC(c3ccccc3)C2)s1 (stereo not drawn),-1.1,nt
Cc1ccccc1-c1noc(-c2nnn(-c3ccc(Br)cc3F)c2C)n1,nt,1.4
O=C(O)c1cccc(-c2ccc(CO)o2)c1,0.12,0.68
CN(C)S(=O)(=O)c1ccc2c(c1)cc(C(=O)O)n2Cc1ccccc1,-0.56,1.8
CC1=C(C(=O)NCCN(C)C2CCCCC2)C2(CCN(S(C)(=O)=O)CC2)OC1=O,nt,-0.24
CCOc1ccc(Nc2cc(C)nc3ccc(OC)cc23)cc1,-1.5,2.8
O=c1c2ccccc2nc(/C=C/c2ccccc2)n1Cc1ccccc1,-0.77,nt
COC(=O)C1CCN(C(=O)Cn2cnc3c2c(=O)n(C)c(=O)n3C)CC1,-2.3,0.15
CC(=O)N1CCC2(CC1)CC(=O)c1cc(OCC(=O)O)ccc1O2,-0.9,nt
CC(C(=O)Nc1ccccc1Cl)n1sc2ccccc2c1=O (stereo not drawn),-0.22,2
COc1ccc(-n2nnc3c(=O)n(CC(N)=O)cnc32)cc1,-0.19,0.13
Cc1cc(C)c2c(-n3cccc3)c(C(=O)NCCN(C)C)sc2n1,-2.1,-1.7
COc1cc2ccc(=O)oc2c(O)c1O,nt,-0.62
Cc1c(C(=O)O)sc2nc[nH]c(=O)c12,1.7,0.07
Cn1c(=O)c2c(SCC(=O)NCc3ccc4c(c3)OCO4)nc(C3CCCCC3)nc2n(C)c1=O,nt,-0.3
O=C(Nc1cccc(Cl)c1)N1CCc2nc(N3CCCCC3)ncc2C1,nt,0.26
COCCn1c(CCC(=O)O)ccc1-c1cccs1,-1.7,-5

# Not a retest: entries from further up.
SMILES,CDC25B-CDK2 inh,TAR Tat displ
O=C(O)c1cccc(-c2ccc(CO)o2)c1,0.12,0.68
CN(C)S(=O)(=O)c1ccc2c(c1)cc(C(=O)O)n2Cc1ccccc1,-0.56,1.8
CC1=C(C(=O)NCCN(C)C2CCCCC2)C2(CCN(S(C)(=O)=O)CC2)OC1=O,nt,-0.24
CCOc1ccc(Nc2cc(C)nc3ccc(OC)cc23)cc1,-1.5,2.8
O=c1c2ccccc2nc(/C=C/c2ccccc2)n1Cc1ccccc1,-0.77,nt
COC(=O)C1CCN(C(=O)Cn2cnc3c2c(=O)n(C)c(=O)n3C)CC1,-2.3,0.15
CC(=O)N1CCC2(CC1)CC(=O)c1cc(OCC(=O)O)ccc1O2,-0.9,nt
CC(C(=O)Nc1ccccc1Cl)n1sc2ccccc2c1=O (stereo not drawn),-0.22,2
COc1ccc(-n2nnc3c(=O)n(CC(N)=O)cnc32)cc1,-0.19,0.13
Cc1cc(C)c2c(-n3cccc3)c(C(=O)NCCN(C)C)sc2n1,-2.1,-1.7
COc1cc2ccc(=O)oc2c(O)c1O,nt,-0.62
Cc1c(C(=O)O)sc2nc[nH]c(=O)c12,1.7,0.07
Cn1c(=O)c2c(SCC(=O)NCc3ccc4c(c3)OCO4)nc(C3CCCCC3)nc2n(C)c1=O,nt,-0.3
O=C(Nc1cccc(Cl)c1)N1CCc2nc(N3CCCCC3)ncc2C1,nt,0.26
COCCn1c(CCC(=O)O)ccc1-c1cccs1,-1.7,-5

# The listing continues:
SMILES,CDC25B-CDK2 inh,TAR Tat displ
CN(C)CCN(Cc1ccco1)C(=O)c1oc2ccccc2c1NC(=O)c1ccccc1,nt,0.63
CN(C)c1ccc(CN2CCc3nc(N4CCOCC4)ncc3C2)cc1,nt,0.42
Clc1cccc(N2CCN(c3ncnc4[nH]ncc34)CC2)c1,nt,1.8
Cc1c(C(=O)NC2CCCCC2C)oc2ccc(S(=O)(=O)N3CCOCC3)cc12 (stereo not drawn),1.3,nt
Cc1ccc(C2=NN(C(=O)c3cccc(C)c3O)C(O)(C(F)(F)F)C2)cc1 (stereo not drawn),-1.5,nt
Cc1cc(C)c2c(CC(=O)Nc3nc4ccc(S(C)(=O)=O)cc4s3)coc2c1,-0.27,0.93
Cc1c(C(=O)N(Cc2ccccc2F)C2CCS(=O)(=O)C2)oc2ccc(F)cc12 (stereo not drawn),-0.56,2.5
C[C@@H]1CC[C@]2(C(=O)O)CC[C@]3(C)C(=CCC4[C@@]5(C)CC[C@H](O)C(C)(C)C5CC[C@]43C)C2[C@H]1C (stereo partly drawn),nt,1.5
Cn1c(=O)c2cc(C(=O)NCc3ccco3)sc2c2ccc(Cl)cc21,-0.93,1.7
O=C(c1nc2ccccc2nc1Cl)N1CCN(c2ccccn2)CC1,-1.2,0.74
COc1ccc(OC)c(CN2CCc3nc(Nc4ccc5c(c4)OCO5)ncc3C2)c1,nt,0.14
Cn1c(=O)c2c(SCC(N)=O)nc(CC(C)(C)C)nc2n(C)c1=O,nt,0.1

# The order is random; 0.97% or so of the library scored in one or more.
